TRPV1 PAM – enhances activation of the human vanilloid receptor TRPV1. TRPV1-expressing cells, Fluo-8 calcium influx, capsaicin EC20 potentiation; host cell line not named in the record; control for the full effect not named in the record. AID 540277. 320,000 compounds, 0.02% hits. Q8NER1. potentiation, % at 8.33 µM; active means potentiation above 80%; inconclusive means 30% to 80%; inactive means below 30%; further: 0% is about no effect
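Fluo-8 calcium influx in TRPV1-expressing cells, kinetic read (ex 480/em 520 nm). Compound added and read 3 min for agonist activity, followed by capsaicin at EC20 final and 2 min further read for enhancement.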
Menin-MLL FL inh – inhibitors of human menin-MLL interaction, wild-type MLL peptide; 290,000 tested, under 10 active; AID 1766; Fluorescence polarization, fluorescein-MLL peptide displacement from menin; FP activity change, % at 61.4 µM; inconclusive = falling polarisation curve, or a change in total fluorescence; inactive = total fluorescence flat and polarisation flat or rising; no compound was filed as active; the % refers to the polarisation; negative = inhibition;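 further: % of control where 0% means no effect; inhibitors lower the polarisation; unlabelled MLL peptide was the positive control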
Sfp PPTase inh – blocks B. subtilis Sfp PPTase activity; Biochemical Sfp PPTase activity, qHTS; Potency, µM, inactives show max response, negative = inhibition, actives largely listed as inhibitors; 310,000 compounds, 3.5% hits; Q9F4F7; active means well fitted inhibition curve with a large enough effect; inconclusive means small, poorly fitted or top-dose-only effect, or another doubt; inactive means no such curve, though single readings can be large or run the other way;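 further: the enzyme is Sfp with the accession as filed and its product quenches rhodamine fluorescence; potency means the concentration at half of the fitted maximal effect; 0% = enzyme reaction without inhibitor and -100% = no enzyme wells; top concentration of the series not given in the record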
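Sfp 15 nM + cpd, 15 min RT; start w/ rhodamine-CoA 5 uM, BHQ-2-YbbR 12.5 uM (final); 50 mM Hepes pH 7.6, 10 mM MgCl2, 0.01% NP-40, 0.01% BSA; read 525/598 nm at 0 and 30 min.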
gsp ag – agonists of gsp mutant (McCune-Albright syndrome). gsp mutant cells, cAMP HTRF, 30 min; control for the full effect not named in the record. Potency, µM (series often up to 76.9 µM), inactives show at the top dose activation (cAMP increase), hits mostly activators. 340,000 compounds, 0.13% hits. AID 624287; active = well fitted activation curve with a large enough effect; inconclusive = small, poorly fitted or top-dose-only effect, or another doubt; inactive = no such curve, though single readings can be large or run the other way; cell line not stated here;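 further: phosphodiesterase inhibitor Ro 20-1724 added with compounds to block cAMP breakdown; potency means the concentration at half of the fitted maximal effect; nearly all actives have a fitted effect of over 60% in size; about a fifth of the inactives were tested at one dose only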
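Cells in DMEM/10% FBS with G418 were pretreated with compounds in DMSO plus […] (300 uM stock) for 30 min at 37C. cAMP was measured by HTRF (cAMP-d2 plus anti-cAMP antibody-K) after 30 min at room temperature.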
gsp antagonist – gsp mutant antagonism. gsp-mutant cells, cAMP HTRF, 30 min; control for the full effect not named in the record. Potency, µM (doses to about 76.9 µM), inactives show top-dose activity change, negative = inhibition, usual class: inhibitors. 340,000 compounds, 0.4% hits. AID 624288; active = falling curve of any shape with a large fitted effect; inconclusive = falling curve, mostly with a smaller effect; inactive = flat or rising curve; cell line not stated here;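 further: intracellular cAMP measured with PDE inhibitor Ro 20-1724 present during compound exposure; potency means the concentration at half of the fitted maximal effect; on the % scale 0 is the no-effect control and ±100 the full control effect; nearly all actives have a fitted effect of over 65% in size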
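Measurement of cellular cAMP by homogeneous time-resolved fluorescence following a 30 min compound exposure at 37C. The PDE inhibitor […] was present throughout; the assay buffer was DPBS with 0.05% BSA and 0.005% Tween 20.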
ClpP mod – qHTS Assay for Activators of ClpP; purified B. subtilis ClpP, FRET peptide cleavage, 20 min; AID 651965, 2013; ATP-dependent Clp protease proteolytic subunit (Bacillus subtilis (strain 168)), P80244; Potency, µM (highest dose often 57.5 µM), for the others: at the highest dose activity change, negative = active; 340,000 compounds, 1.9% hits; active = well fitted falling curve with a large enough effect; inconclusive = small, poorly fitted or top-dose-only effect; inactive = no such curve, though single readings can be large or run the other way; further: potency means the concentration at half of the fitted maximal effect; the source files actives as falling curves though it sought activators and does not explain the sign; nearly all actives have a fitted effect of over 65% in size; many hits overshoot -100%
Target sequence (P80244 whole entry, looked up): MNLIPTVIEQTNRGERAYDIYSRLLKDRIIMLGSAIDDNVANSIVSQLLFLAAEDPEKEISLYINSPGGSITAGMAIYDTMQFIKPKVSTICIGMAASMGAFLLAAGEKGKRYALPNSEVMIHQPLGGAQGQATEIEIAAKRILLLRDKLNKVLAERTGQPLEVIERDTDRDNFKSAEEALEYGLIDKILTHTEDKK
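Purified B. subtilis ClpP, 10 microg/mL final in Tris/HCl pH8 with KCl, BSA, glycerol and Tween-20, cleaved an Abz/nitrotyrosine-quenched decapeptide. Fluorescence (ex 320, em 430) was read at 0 and 20 min at room temperature. Delta was normalized to 5.8 microM ADEP and DMSO/no-enzyme controls.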
TRPML1 blocker – blocks the human TRPML1 channel. Q9GZU1. TRPML1-inducible cells, Ca2+ dye fluorescence, FDSS; active compounds read low; inhibition of EC80 agonist-evoked calcium signal. activity change, negative = inhibition, % (no concentration beside the values). 390,000 compounds, 0.02% hits. AID 624415; in the data active means activity change below about -50%; inconclusive means about -30% to -50%; inactive means above about -30%;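 further: stimulus is agonist 54-4 at its EC80 concentration; on the % scale 0 is the no-effect control and ±100 the full control effect; compound concentration not given in the record; the text of the record puts the active cut at -80%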
Target sequence (Q9GZU1 whole entry, looked up): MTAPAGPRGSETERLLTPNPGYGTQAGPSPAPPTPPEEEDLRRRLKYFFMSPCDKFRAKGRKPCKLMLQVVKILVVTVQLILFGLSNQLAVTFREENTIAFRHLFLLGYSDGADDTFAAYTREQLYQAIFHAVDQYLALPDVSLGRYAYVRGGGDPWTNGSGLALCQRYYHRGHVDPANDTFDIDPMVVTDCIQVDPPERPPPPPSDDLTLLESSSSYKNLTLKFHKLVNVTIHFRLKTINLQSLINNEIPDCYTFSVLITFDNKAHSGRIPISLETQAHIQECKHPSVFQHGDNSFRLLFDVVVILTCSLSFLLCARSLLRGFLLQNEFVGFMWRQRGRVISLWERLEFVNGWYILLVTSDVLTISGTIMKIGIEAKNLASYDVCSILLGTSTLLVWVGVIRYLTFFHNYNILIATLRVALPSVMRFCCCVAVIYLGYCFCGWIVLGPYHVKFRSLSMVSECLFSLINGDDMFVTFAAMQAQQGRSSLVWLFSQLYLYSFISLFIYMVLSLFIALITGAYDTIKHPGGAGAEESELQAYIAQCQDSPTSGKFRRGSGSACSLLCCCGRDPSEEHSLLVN
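Tet-induced TRPML1-DL cells loaded with Ca8 no-wash calcium dye were read kinetically on FDSS. Compound addition was followed by EC80 agonist 54-4 (4 uM final); inhibition was read over 110 s.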
The depositor's hits bear a star; ? = inconclusive; nt = not tested or not shown; & = joins results of further samples; [ ] = dose if it differs, or a comment.

SMILES	TRPV1 PAM	Menin-MLL FL inh	Sfp PPTase inh	gsp ag	gsp antagonist	ClpP mod	TRPML1 blocker
NNC(=O)CSc1nnnn1-c1ccccc1	-4	1.6	3%	7%	6%	-0.9%	-13
CN(C(=O)c1ccc(Cl)c([N+](=O)[O-])c1)C1(C)CCS(=O)(=O)C1 (stereo not given)	-9	nt	nt	4%[15.4 µM]	-2%	nt	6
O=S1(=O)CCC(n2ncc3c2/C(=C/c2ccccc2)CC3)C1 (stereo not given)	-1	1.6	15%	-3%[15.4 µM]	-41%	nt	46
N=C1C(c2nc3ccccc3[nH]2)=C(O)CN1c1ccc(CC(=O)O)cc1	0	?	?	25%	-4%	-3.1%	2
O=C(c1ccc(F)cc1)N1CCN(C(=O)c2ccc([N+](=O)[O-])cc2)CC1	-1	5.4	9%	-13%[15.4 µM]	4%	nt	-1
COc1cc(-c2nnc(SCC3(c4ccccc4)OCCO3)o2)cc(OC)c1OC	4	-1.6	-17%	0%	-3%	-6.4%	-1
Nc1ccc(CSc2ccc(Cl)cc2)cc1	0	1.3	14%	2%	-6%	nt	-9
CCOC(=O)C1CCCN(C(=O)c2ccc3nc(-c4ccccc4)c(-c4ccccc4)nc3c2)C1 (stereo not given)	6	nt	-12%	-3%	12%	4.0%	-6
CCn1c(SCC(=O)N2c3ccccc3CC2C)nnc1-c1ccco1 (stereo not given)	nt	nt	nt	26%	-8%	1.4%	5
Cc1csc2c(SCC(=O)NNC(=O)C(Cl)Cl)ncnc12	4	15	26%	8%	-10%	-0.1%	-24
Cc1oc(C(=O)O)cc1COc1ccc2c3c(c(=O)oc2c1C)CCCC3	3	0.8	14%	nt	nt	nt	nt
COc1cc(NC(=O)c2ccc(Cl)cc2)c(Cl)cc1NC(=O)c1cccnc1	1	-6.7	11%	?	3%	4.0%	27
CCOC(=O)CC(=O)CSc1nc2c(C)c(C)ccc2cc1C	-1	0.8	0%	1%	-3%	-0.1%	3
O=C(COc1ccccc1Cl)NCCCNC(=O)c1ccco1	?	-14	6%	-3%	11%	nt	-11
CSc1cccc(N2CC(C(=O)N(CC(C)C)c3c(N)n(Cc4ccccc4)c(=O)[nH]c3=O)CC2=O)c1 (stereo not given)	2	nt	nt	-18%	0%	5.8%	8
Cc1ccc(CNC(=O)CCCn2c(=O)c3ccccc3n(CC(=O)NC3CCCC3)c2=O)cc1	-4	0.3	-3%	-1%	-3%	-11%	-4
CC(C)N(Cc1nc(-c2ccc(Cl)cc2)no1)C(=O)CCCN1C(=O)c2ccccc2C1=O	nt	1.6	-3%	?	-26%	0.4%	-14
COC(=O)C1=C(N)Oc2cc(C)n(Cc3ccco3)c(=O)c2C1c1cccc(Cl)c1 (stereo not given)	-8	4.1	-5%	6%	-21%	-8.1%	3
O=C(CCC(=O)OCC(=O)c1ccc(Br)cc1)Nc1ccc(Br)c2cccnc12	3	?	13%	14%	-13%	-9.9%	-12
CN(C)/C=C1\N=C(c2ccc(Cl)cc2Cl)OC1=O	-14	3.3	13%	2%	0%	-2.6%	6
CC(CCc1ccccc1)NC(=O)CCCn1ncn2c(cc3occc32)c1=O (stereo not given)	4	nt	5%	2%	-9%	-5.4%	1
COc1ccc(S(=O)(=O)N2CCCC(C(=O)NCC3CCCO3)C2)cc1C (stereo not given)	-12	-6.5	12%	-50%[inhibitor]	3%	?	-10
CC(C)C[C@H](NC(=O)Nc1ccc(S(N)(=O)=O)cc1)C(=O)O	0	-1.4	10%	18%	5%	-1.8%	-9
O=C1CC(NS(=O)(=O)c2cccnc2)CN1c1ccc(F)cc1 (stereo not given)	8	nt	nt	-26%	6%	1.4%	1
O=C(COC(=O)c1ccc(F)cc1Cl)NC1CC1	nt	nt	nt	-74%[inhibitor]	nt	-2.4%	34
Later entries:
SMILES	TRPV1 PAM	Menin-MLL FL inh	Sfp PPTase inh	gsp ag	gsp antagonist	ClpP mod	TRPML1 blocker
CCN(CC)C(=O)[C@H]1C[C@H](CC(=O)NC/C=C(\C)CCC=C(C)C)C(=O)N2CCc3c([nH]c4cc(-c5ccco5)ccc34)[C@]12C	nt	nt	nt	nt	-15%	4.2%	12
Nc1nc(-c2ccc([N+](=O)[O-])cc2)cc(=O)[nH]1	nt	nt	nt	-3%	1%	nt	-2
COC(=O)C=C1CCC2C3CCC4=CC(=O)CCC4(C)C3C(=O)CC12C (stereo not given)	nt	nt	nt	-19%	-1%	nt	-9
COc1ccc(N2CCN(C(=O)c3cn(Cc4ccccc4)nc3-c3cccnc3)CC2)cc1	7	nt	nt	-34%[inhibitor]	1%	0.0%	14
COc1ccc(NC(=O)Nc2cnccn2)cc1	5	0.0	17%	-13%	5%	-9.7%	1
O=C(c1ccccc1)c1ccc2cc(O)ccc2c1	27	17	-1%	-15%[15.4 µM]	8%	1.0%	12
O=C1CSC(c2cn(-c3ccccc3)nc2-c2ccc3c(c2)OCCO3)N1CCN1CCOCC1 (stereo not given)	1	2.1	-25%	-42%[inhibitor]	9%	-22%	9
Cc1c(C=NCCOCc2ccccc2)cnn1C	2	-0.8	7%	1%	-14%	0.4%	21
Cc1nc2ccccn2c1C(=O)NCc1cccnc1	-7	1.6	14%	20%	9%	-14%	2
O=c1[nH]nnc2c1cnn2-c1ccccc1	nt	nt	nt	-13%	-6%	-2.2%	39
CCc1cc2c(COC(=O)CCNS(=O)(=O)c3cccc(C(F)(F)F)c3)cc(=O)oc2cc1O	1	nt	nt	22%	-9%	?	-12
CCOC(=O)c1[nH]c2ccc(OC)cc2c1NC(=S)N1CCN(c2ccc(F)cc2)CC1	-12	8.6	5%	-5%	-9%	-1.1%	0
COc1ccc(Oc2c(OC)cc([N+](=O)[O-])c3ncccc23)cc1	nt	nt	nt	0%[15.4 µM]	5%	0.5%	15
CC(C)C(OC(=O)c1nsc(Cl)c1Cl)C(=O)NC1CCCCC1 (stereo not given)	-8	-2.4	9%	?	-2%	nt	-2
COC(=O)c1c(C(=O)OC)c(-c2ccc(F)cc2)n2c1CS(=O)(=O)C2	9	-5.2	25%	4%	-17%	1.6%	4
Cc1ccccc1-c1nc(-c2ccc(NC(=O)c3ccc(Br)o3)cc2)no1	-1	5.3	-1%	-29%	-15%	151%	8
Cc1nnc(OCc2nc3ccccc3n2C)c2ccccc12	-16	0.8	2%	-6%	-4%	?	-14
N#CCCSc1ncnc2c1oc1ccccc12	-7	2.3	-5%	-2%	44%[activator]	-1.3%	1
Cc1ccc(-c2nnn(CC(=O)NCC3CC3)n2)o1	3	-0.1	6%	26%	10%	-1.4%	21
CCNS(=O)(=O)c1ccc(OC)c(C(=O)NC2CCCCC2)c1	-6	-1.7	-3%	7%	0%	nt	20
COc1ccc(C(c2nnnn2CS(=O)(=O)c2ccc(C)cc2)N2CCN(c3ncccn3)CC2)cc1 (stereo not given)	10	5.0	11%	-41%[inhibitor]	-13%	32µM*	-4
COc1cccc(CN2CCN(C3CSCCSC3)CC2CCO)c1 (stereo not given)	2	-3.1	-11%	-6%[15.4 µM]	8%	nt	8
CC(=O)Nc1ccc(NS(=O)(=O)c2cccc3ccccc23)cc1	3	1.8	?	-12%	-12%	-1.2%	20
Cc1cccc(Cc2cnc(NC(=O)C3=NCCN3)s2)c1	-4	1.9	20%	-1%[15.4 µM]	24%	-7.8%	-20
CCCC/C(O)=C1\C(=O)CC(C)(C)CC1=Nc1ccc(N)cc1	1	4.5	2%	0%[15.4 µM]	16%	2.0%	-2
The results go on:
SMILES	TRPV1 PAM	Menin-MLL FL inh	Sfp PPTase inh	gsp ag	gsp antagonist	ClpP mod	TRPML1 blocker
CN(C)S(=O)(=O)c1ccc(C(=O)NCC2(N3CCCCC3)CCCCC2)cc1	-3	0.6	6%	1%[15.4 µM]	-8%	0.6%	-13
COc1ccc(C(=O)NNC2=CC(=O)CC(C)(C)C2)cc1OC	-2	-2.9	18%	-15%	-6%	1.5%	-5
CN(Cc1nc(-c2ccccc2)no1)C1CCOCC1	14	1.0	24%	?	4%	-3.9%	nt
CC(=O)c1c(NCc2ccccc2)nc(=O)n(-c2ccccc2)c1C	-34	0.2	-15%	2%	8%	-0.4%	-10
COc1cccc(NC(=O)COC(=O)Cc2ccc(Cl)cc2)c1	-9	2.8	19%	16%	6%	-1.6%	-23
CN(C(=O)COC(=O)c1ccc2c(c1)OCCO2)c1ccccc1	1	-3.1	4%	-36%[15.4 µM]	-1%	nt	-13
Cc1cc(C)c(NC(=O)Cn2cnc3c(oc4ccccc43)c2=O)c(C)c1	3	-2.1	-7%	5%[15.4 µM]	-4%	1.1%&1.7%	-7&0
CCC(Sc1nc2cc3c(cc2c(=O)n1Cc1ccco1)OCO3)C(=O)Nc1ccccc1OC (stereo not given)	-5	3.6	?	-10%	4%	1.0%	-9
CSc1ncc(Cl)c(C(=O)Nc2cc(C)ccc2C)n1	2	-6.2	7%	10%	19%	-0.1%	-10
CCOC(=O)c1cnn(-c2cccc(Cl)c2)c1N	-11	2.5	12%	1%	-3%	-0.8%	3
CCCCC(=O)Nc1ccc(NC(=O)c2ccco2)cn1	-54	-2.0	16%	-2%[15.4 µM]	-10%	-1.6%	-9
Cc1cc(NC(=O)c2ccccc2F)on1	-1	1.4	15%	-160%[inhibitor]	3%	nt	-10
CCCc1c(O)nc(SCCN(CCC)CCC)[nH]c1=O	-3	0.0	-3%	-33%[inhibitor]	2%	0.0%	2
CCOC(=O)[C@H]1[C@H]2COc3cc(OC)ccc3[C@@H]2N2C(=O)N(c3cccc(F)c3)C(=O)[C@@]12C	nt	nt	nt	-1%	0%	2.0%	13
C#CCOCCOCCOCCNc1nc(N2CCN(C(=O)[C@H](Cc3cc4ccccc4[nH]3)n3cc([C@@H](N)C(C)CC)nn3)CC2)nc(N2CCN(C(=O)[C@H](Cc3cc4ccccc4[nH]3)n3cc([C@@H](N)CC(C)C)nn3)CC2)n1 (stereo not given in full)	-10	2.7	?	nt	nt	nt	nt
CC[C@@H]1C=C(C(=O)O)[C@H](c2ccc(Cl)c(Cl)c2)N1S(=O)(=O)c1ccc(C)cc1	nt	nt	nt	nt	-9%	-0.1%	1

Rows were taken by chance. Share with any hit: about 4.9%.
